ALR H2O2 inh: human ALR oxidase inhibition via reduced H2O2. purified ALR, DTT oxidation, H2O2 HRP-luminol luminescence. inhibition, % (test concentration not listed). 290,000 compounds, 3.8% hits;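 active means mean and each replicate at 75% or more; inconclusive means only one of the two met; inactive means neither met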;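 further: stock transfer was 7.5 nL into about 7.5 µL; 0% = neutral wells and 100% = wells with inactivated enzyme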
Target sequence (P55789 whole entry, looked up): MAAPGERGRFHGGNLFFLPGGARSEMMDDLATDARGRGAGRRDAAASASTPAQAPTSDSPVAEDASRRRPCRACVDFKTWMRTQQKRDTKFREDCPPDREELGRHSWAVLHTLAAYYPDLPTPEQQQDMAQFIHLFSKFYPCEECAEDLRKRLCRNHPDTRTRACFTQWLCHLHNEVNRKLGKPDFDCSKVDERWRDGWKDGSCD
Vif TR-FRET: inhibitors of Vif binding to APOBEC3G peptide, primary screen, biochemical, TR-FRET, GST-Vif 1-94, biotin-A3G peptide, dose response retest (AID 1117319). TR-FRET GST-Vif / biotin-A3G peptide binding; higher % means a stronger effect; test concentration not given here; strong numbers were not always called active. inhibition, %, or IC50 in µM where a hit was titrated. 260,000 compounds, 0.57% hits;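 active means above the screen mean plus three standard deviations and confirmed in dose response; inconclusive means results disagree or hit not tested in dose response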;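 further: Vif residues 1-94 fused to GST binding biotinylated APOBEC3G peptide 110-148; 0% = full assay without inhibitor and 100% = GST in place of GST-Vif; retest series ran down from 100 µM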
AF4-AF9 inh: MLL-AF4/AF9 protein interaction inhibition | P42568 | AlphaScreen, biotin-AF4 peptide binding to FLAG-AF9 | inhibition, % at 10 µM | 350,000 compounds, 0.47% hits | AID 651704;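 active means every replicate reaching a set inhibition limit, whatever the replicate mean, cut at about 25% in these data; inconclusive means mean inhibition reaches that limit but some replicates miss it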;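 further: 0% = plate neutral control median and 100% = total signal loss; the record names both 10 and 1 µM as test concentration; the first replicate is given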
Target sequence (P42568 whole entry, looked up): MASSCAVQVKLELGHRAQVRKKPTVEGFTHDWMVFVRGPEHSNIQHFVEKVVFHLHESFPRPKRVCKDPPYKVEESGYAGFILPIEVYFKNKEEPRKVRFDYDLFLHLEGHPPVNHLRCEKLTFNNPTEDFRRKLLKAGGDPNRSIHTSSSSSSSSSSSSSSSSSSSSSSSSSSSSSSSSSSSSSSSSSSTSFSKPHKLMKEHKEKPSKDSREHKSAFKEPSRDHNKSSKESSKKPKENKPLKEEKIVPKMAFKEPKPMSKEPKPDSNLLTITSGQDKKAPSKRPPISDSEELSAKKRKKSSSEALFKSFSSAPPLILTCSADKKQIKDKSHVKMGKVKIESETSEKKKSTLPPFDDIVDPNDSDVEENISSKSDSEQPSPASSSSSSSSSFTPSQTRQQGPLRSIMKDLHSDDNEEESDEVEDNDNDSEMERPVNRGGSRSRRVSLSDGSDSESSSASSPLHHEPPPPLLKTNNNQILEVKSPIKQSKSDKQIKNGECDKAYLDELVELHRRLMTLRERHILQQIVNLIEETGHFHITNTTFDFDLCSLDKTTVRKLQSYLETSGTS
HNF4A DNA FP: change in binding of human HNF4 alpha to DNA; HNF4a-FITC DNA binding, fluorescence polarization, 1 h; activity change, % at 10 µM; AID 1224865; P41235; 360,000 compounds, 0.3% hits; in the data active means activity change above about 30%, passing the limit was not always enough;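 further: controls were the assay level and a saturating level of protein; the project sought stronger binding though the title names inhibitors; some compounds called inactive have numbers as strong as hits; positive values seem to mean higher polarization but the record does not say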
Ecoli growth: blocks Escherichia coli growth | OD600, 23 h; hits give low values | OD600 absorbance (concentration not given with the values) | 330,000 compounds, 0.21% hits;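 active means OD600 absorbance below the run mean of sample wells minus 3.6 SD, in any replicate, cut at about 0.56 in these data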;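 further: stock transfer was 300 nL into about 60 µL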
rRNA inh HTS: selective bacterial rRNA inhibition in E. coli; 350,000 compounds, 1.6% hits; AID 720706; E. coli WT GFP vs humanized-ribosome RFP mutants, fluorescence, 24 h; hits give low values; DMSO median 0, no signal -100; GFP signal change (wild-type ribosome), % (test concentration not listed);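 active means significant combined selectivity score with lowered wild-type GFP, culture density cut under 30%, mutant RFP and density less affected; inactive means any of these conditions unmet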; further: one replicate is shown; some compounds called inactive have numbers as strong as hits
FGF22 binding: binders of recombinant human FGF22 by thermal shift. Q9HCT0. SYPRO orange fluorescence; percent of sucrose octasulfate shift, DMSO zero. calls only at 9.99 µM. 340,000 compounds, 1.5% hits. AID 651658;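 active means melting point raised past a set limit in the mean and every replicate; inconclusive means no clear call; three in four hits are not shown here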
Target sequence (Q9HCT0 whole entry, looked up): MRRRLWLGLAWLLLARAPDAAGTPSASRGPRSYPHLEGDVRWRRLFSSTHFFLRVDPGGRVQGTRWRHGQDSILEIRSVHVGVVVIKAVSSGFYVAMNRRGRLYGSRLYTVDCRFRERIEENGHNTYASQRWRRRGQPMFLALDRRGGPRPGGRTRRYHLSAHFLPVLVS
rRNA inh HTS OD600: further read-out of rRNA inh HTS, marked with its call; OD600 change, %; measured here: OD600 growth;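 optical density of the mix in the first replicate; 0 = DMSO median and -100 = no signal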
rRNA inh HTS RFP: also measured in rRNA inh HTS; calls as there; RFP signal change, %; measured here: RFP humanized mutant strains;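 first replicate; 0 = DMSO median and -100 = no signal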
The depositor's hits bear a star; i = inactive; ? = inconclusive; . = no result given; & = joins results of further samples.

SMILES	ALR H2O2 inh	Vif TR-FRET	AF4-AF9 inh	HNF4A DNA FP	Ecoli growth	rRNA inh HTS	rRNA inh HTS OD600	rRNA inh HTS RFP	FGF22 binding
CCCCN1C(=O)C(=O)N(CC(=O)c2ccc[nH]2)C1=O	-9	6%	1.6	4.0	0.7	5	2	-0.4	i
CC(C)NC(=O)Nc1ccc2c(c1)CC(=O)N([C@H](C)CO)C[C@@H](C)[C@@H](CN(C)C(=O)Nc1cccc3ccccc13)O2	.	.	-1.5	.	.	0	1	1.5	i
CCCC#Cc1cnc2c(c1)C(=O)N([C@@H](C)CO)C[C@@H](C)[C@H](CN(C)C(=O)C1CCC1)O2	.	.	-0.6	.	.	0	-2	-2.3	i
C[C@H](CO)N1C[C@H](C)[C@@H](CN(C)C(=O)NC2CCCCC2)Oc2c(NS(C)(=O)=O)cccc2C1=O	.	.	-1.8&-2.6	.	.	-2	0	-2.6	i
CCC(C)(C#CCN1CCCCC1)OCCC#N (centres undefined)	.	-4%	.	3.9	0.69	.	.	.	.
CCN(CC)S(=O)(=O)c1c(Br)cc(C)cc1Br	3	1%	-4.4	14	0.72	-44	-57	-19	i
CC(=O)NCCC(=O)Nc1cc(S(=O)(=O)Nc2ccc(Cl)cc2)ccc1N1CCCC1	.	4%	3.8	2.9	0.68	4	-6	6.7	i
C[C@@H]1CCCCO[C@@H](CN(C)S(=O)(=O)c2cn(C)cn2)[C@@H](C)CN([C@H](C)CO)C(=O)c2cc(NC(=O)c3ccncc3)ccc2O1	.	.	-1.3	.	.	3	6	-4.6	i
N/C(=N\OS(=O)(=O)c1ccc(Br)cc1)c1ccncc1	4	2%	.	3.7	0.72	.	.	.	.
Cc1ccc(N/C(N)=N/c2nc(C)cc(C)n2)cc1	.	16%	.	-1.6	0.58	.	.	.	.
CCC(C)NC(=O)CNC(=S)N(Cc1ccccc1)Cc1cccnc1 (centres undefined)	2	.	0.4	1.9	0.67	-4	1	0.2	i
COC(=O)c1cc(S(=O)(=O)N(C)C2CCCCC2)cn1C	3	.	-11	-0.7	0.72	2	1	0.5	i
CC(=O)N(C)C[C@@H]1Oc2cc(C#Cc3ccccc3)ccc2S(=O)(=O)N([C@@H](C)CO)C[C@H]1C	.	.	-1.0	.	.	-1	-17	3.8	i
Cc1cc(NC(=O)c2cc(-c3cccs3)on2)nn1Cc1ccc(Cl)cc1	.	-8%	.	-0.4	0.77	.	.	.	.
CN(C)S(=O)(=O)c1ccc(Nc2ccc(-c3ccc4c(c3)OCCO4)nn2)cc1	-2	-5%	0.6	3.2	0.67	9	12	3.8	i
O=C(N[C@@H]1C=C[C@@H](CC(=O)N2CCOCC2)O[C@@H]1CO)c1ccc2c(c1)OCO2	.	.	-0.2	.	.	1	9	-4.0	i
Cn1c(=O)c2[nH]c(-c3cccnc3)nc2n(C)c1=O	-2	?	.	-1.0	0.69	.	.	.	.
CN=c1scc(C)n1/N=C/c1ccc2c(c1)OCO2	98*	13%	.	0.7	.	.	.	.	.
CC(C)c1ccc(S(=O)(=O)N2CCC(C(=O)N3CCC3)CC2)cc1	1	2%	0.4	1.7	0.69	7	1	0.2	i
CCn1c(-c2ccccc2)ccc(C#N)c1=O	-11	0%	.	1.0	0.72	.	.	.	.
Cc1ccc(N(C)S(=O)(=O)c2cccc(C(=O)NCC(c3cccs3)N3CCOCC3)c2)cc1 (centres undefined)	4	0%	2.1	0.4	0.7	-21	-27	-3.5	i
CC(C)(C)c1nnc(NC(=O)CCS(=O)(=O)Cc2ccccc2)s1	11	.	-2.9	-3.2	0.7	5	5	-0.3	i
CC(=O)N(C)C[C@H]1Oc2ncc(C#CCC3CCCC3)cc2C(=O)N([C@@H](C)CO)C[C@H]1C	.	.	-6.0	.	.	8	7	1.7	i
COc1cccc(C(=O)NCCS(=O)(=O)NCC2CCCO2)c1 (centres undefined)	-5	-1%	-0.6	0.0	0.65	10	6	-2.2	i
COCCCNS(=O)(=O)c1ccc(C)cc1	-1	3%	-0.8	-0.3	0.69	15	20	1.6	i
COc1ccc(S(=O)(=O)Nc2ccc3c(c2)OCO3)cc1OC	6	15%	.	-1.2	0.68	-1	-9	1.8	.
CN(C(=S)NC(=O)c1ccc(Br)o1)c1ccccc1	.	25%	.	2.3	0.67	.	.	.	.
C[C@H]1CN([C@@H](C)CO)C(=O)Cc2cc(NS(=O)(=O)c3ccccc3)ccc2O[C@@H]1CN(C)Cc1ccc(Cl)c(Cl)c1	.	.	-18	.	.	-2	7	3.2	i
CC(C)CNC(=O)c1cccc(NC(=O)c2ccc(NC(=O)c3ccco3)cc2)c1	-1	?	.	4.4	0.66	.	.	.	.
COc1ccc2[nH]c(=O)c(CN(C(=O)c3ccccn3)C3CCCCC3)cc2c1	99*	0%	.	-2.4	0.75	.	.	.	.
CNC[C@@H]1Oc2ccc(NC(=O)Nc3c(C)noc3C)cc2C(=O)N([C@@H](C)CO)C[C@H]1C	.	.	-4.3	.	.	1	4	-3.0	i
COc1ccc(N(CC(=O)N/N=C/c2cccs2)S(=O)(=O)c2ccccc2)cc1	.	.	5.3	1.5	.	.	.	.	.
COc1ccc2c3c([nH]c2c1)[C@@H](CO)N(C(=O)Nc1ccc(F)cc1)CC31CN(S(=O)(=O)c2cccc(F)c2)C1	.	.	-8.1	.	.	-2	-3	4.2	i
CNC(=O)C1CC(=O)N(Cc2ccc3c(c2)OCO3)C(=Nc2ccc(OC)cc2)S1 (centres undefined)	-3	-7%	.	1.2	0.64	.	.	.	.
Cc1cc(/C=C(/C#N)c2cccc(F)c2)c(C)n1-c1cccnc1	-2	24%	5.5	2.0	0.7	-35*	-15*	-9.0*	i
CCCCCC(=O)c1ccc(O)cc1O	.	-5%	-0.8	1.9	0.63	-39	-50	-11	i
Cc1ccc(C(=O)N2CCC(C(=O)c3ccc(Cl)cc3)CC2)cc1	.	6%	0.4	5.1	0.63	-32	-42	-4.2	i
Cc1cc2oc(=O)cc(CN(C)Cc3ccccc3F)c2cc1Cl	-4	-2%	-2.2	0.2	0.66	.	.	.	i
O=C(N/C(=C\c1cccnc1)C(=O)N1CCCCC1)c1cccc(Br)c1	.	.	-2.8	-0.2	0.66	-1	4	0.9	i
O=C(N1CCOCC1)N1CCCN(C(=O)N2CCOCC2)CC1	-2	3%	.	0.0	0.7	.	.	.	.

Part of the list above, with values under each structure.
Value order: ALR H2O2 inh | Vif TR-FRET | AF4-AF9 inh | HNF4A DNA FP | Ecoli growth | rRNA inh HTS | rRNA inh HTS OD600 | rRNA inh HTS RFP | FGF22 binding
C[C@H]1CN([C@@H](C)CO)C(=O)Cc2cc(NS(=O)(=O)c3ccccc3)ccc2O[C@@H]1CN(C)Cc1ccc(Cl)c(Cl)c1
    . | . | -18 | . | . | -2 | 7 | 3.2 | i
Cc1ccc(N(C)S(=O)(=O)c2cccc(C(=O)NCC(c3cccs3)N3CCOCC3)c2)cc1 (centres undefined)
    4 | 0% | 2.1 | 0.4 | 0.7 | -21 | -27 | -3.5 | i
O=C(N1CCOCC1)N1CCCN(C(=O)N2CCOCC2)CC1
    -2 | 3% | . | 0.0 | 0.7 | . | . | . | .
CC(C)(C)c1nnc(NC(=O)CCS(=O)(=O)Cc2ccccc2)s1
    11 | . | -2.9 | -3.2 | 0.7 | 5 | 5 | -0.3 | i
Cc1ccc(C(=O)N2CCC(C(=O)c3ccc(Cl)cc3)CC2)cc1
    . | 6% | 0.4 | 5.1 | 0.63 | -32 | -42 | -4.2 | i
CC(=O)N(C)C[C@H]1Oc2ncc(C#CCC3CCCC3)cc2C(=O)N([C@@H](C)CO)C[C@H]1C
    . | . | -6.0 | . | . | 8 | 7 | 1.7 | i

Further compounds follow:
SMILES	ALR H2O2 inh	Vif TR-FRET	AF4-AF9 inh	HNF4A DNA FP	Ecoli growth	rRNA inh HTS	rRNA inh HTS OD600	rRNA inh HTS RFP	FGF22 binding
CSc1ccc(CN(C)CC(=O)Nc2cccc(Br)c2)cc1	-4	.	0.0	-1.3	0.63	.	.	.	i
COC1C=COC2(C)Oc3c(C)c(O)c4c(O)c(c(CN5CCN(C)CC5)c(O)c4c3C2=O)NC(=O)C(C)=CC=CC(C)C(O)C(C)C(O)C(C)C(OC(C)=O)C1C (centres undefined)	.	14%	-0.2	-9.7	.	-24	-66	-11	i
CC(C)CC(N)c1csc(Nc2ccc(C(=O)c3ccccc3)cc2)n1 (centres undefined)	.	.	13	3.6	.	-61	-75	-10	i
CC(C)c1cc(C(=O)Nc2cccc(C(F)(F)F)c2)no1	-8	-1%	.	3.1	0.69	.	.	.	.
CC(NC(=O)c1cccc(S(=O)(=O)N2CCc3ccccc3C2)c1)c1ccco1 (centres undefined)	-3	13%	0.4	4.0	0.73	7	14	-1.4	i
CCOC1CCCc2oc(-c3ccc(N(C)C)cc3)c(C(=O)OC)c21 (centres undefined)	.	.	0.6	-1.6	.	1	0	3.1	i
CCn1c(C)nc2cc(OC)ccc21	-11	25%	-14	5.2	0.61	2	7	0.4	i
COc1cc(C(c2c(C(=O)O)[nH]c3ccccc23)c2c(C(=O)O)[nH]c3ccccc23)ccc1OCc1ccccc1	-6	9%	-6.9	-8.6	0.68	11	11	5.7	i
COc1ccc(-c2cnc3c(c2)C(=O)N([C@@H](C)CO)C[C@@H](C)[C@H](CN(C)C(=O)C2CCCCC2)O3)cc1	.	.	-1.2	.	.	-4	-6	3.3	i
COc1cc(CNc2ncn[nH]2)cc(Br)c1OC	-14	7%	.	0.7	0.67	.	.	.	.
O=C(C[C@@H]1C[C@@H]2c3cc(NC(=O)NC4CCCC4)ccc3O[C@@H]2[C@@H](CO)O1)NCc1ccccc1F	.	.	0.8	.	.	-2	-1	-1.2	i
Cc1ccc(NC(=O)CCN2C(=O)C3CCCCC3C2=O)cc1[N+](=O)[O-] (centres undefined)	1	5%	9.8	0.5	0.63	1	-5	-0.8	i
Cc1cccc(C)c1NC(=O)C(c1ccccc1)N1CCC1=O (centres undefined)	-3	1%	.	3.0	0.72	.	.	.	.
CC(=O)c1cccc(CN2CCN(Cc3ccc(F)cc3)C(CCO)C2)c1 (centres undefined)	6	-4%	1.0	-3.2	0.69	16	15	0.1	i
O=C(c1ccccc1F)N(Cc1nc2ccccc2c(=O)[nH]1)C1CCCC1	5	-3%	1.9	-2.8	0.71	-16	-11	-0.1	i
COc1ccc2[nH]c3c(c2c1)CNCC3	.	3%	22	3.3	.	.	.	.	i
CCCCOc1cccc(C(=O)O)c1	1	-1%	.	1.0	0.68	.	.	.	.
CC(C)Cn1c(SCC(=O)N2CCc3ccccc3C2)nc2cc(Cl)ccc2c1=O	1	1%	-4.9	4.0	0.68	1	6	-4.1	i
COc1ccccc1CNC(=O)CCC(=O)Nc1nnc(C)s1	17	-4%	.	0.6	0.71	.	.	.	.
CCC(O)CNc1nc(SC)nc2sc3c(c12)CCN(C)C3 (centres undefined)	1	-9%&-1%	.	7.7	0.71	.	.	.	.
C[C@@H]1CN([C@@H](C)CO)C(=O)c2cccc(NC(=O)Nc3ccc(C(F)(F)F)cc3)c2O[C@H]1CN(C)Cc1ccccc1	.	.	4.4	.	.	1	-4	-1.4	i
CCC(=O)N1C[C@H](C)[C@H](OC)CN(C)C(=O)c2cc(NS(C)(=O)=O)ccc2OC[C@@H]1C	.	.	-0.6	.	.	1	2	0.2	i
O=C(O)c1ccc([N+](=O)[O-])cc1Sc1ccsc1	.	.	-3.9	-2.2	.	-2	8	-4.7	i
Fc1cccc(Cl)c1CNc1ccc(N2CCCC2)cc1	99*	?	8.0	4.3	0.66	5	-2	13	i
CCC(=O)N(CC(=O)Nc1sc(C)c(C)c1C(N)=O)C1CCCCC1	15	1%	-15	-1.5	0.7	4	7	3.3	i
COc1cc(OC)c(C2=NOC(C(=O)N3CCc4ccccc4C3)C2)cc1Cl (centres undefined)	10	-2%	-9.5	3.5	0.72	-26*	-19*	-0.3*	i

Compound activity deposited in PubChem by several laboratories.

An excerpt; rates above refer to the full screens.
